# Assay outcomes deposited in PubChem by National Center for Advancing Translational Sciences (NCATS).
# CtBP-E1A blk: inhibitors of CtBP/E1A interaction. AlphaScreen GST-E1A/His-CtBP binding, 1536-well; hits give low values; control for the full effect not named in the record. activity change, % (concentration not given with the values). actives 0.49% (n = 340,000). AID 651724; in the data active means activity change below about -65%; inconclusive means about -30% to -65%; inactive means above about -30%; also: % is scaled to controls: 0 for no effect and ±100 for the full control effect
#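 Steps: dispense buffer (Tris pH 8.0, NaCl 300 mM, TCEP 1 mM, BSA, Tween 20); add 5X protein mix (GST-E1A, His-CtBP, 125 nM each); pin 23 nL compound; 2 h at 37 °C, dark; add 5X beads (50 ug/mL); 1 h; read.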
# Sfp inh: blocks B. subtilis Sfp PPTase activity; actives 3.5% (n = 310,000); Biochemical Sfp PPTase activity, qHTS; Potency, µM, for the others: max response, negative = inhibition, most hits filed as inhibitors; Q9F4F7; active = well fitted inhibition curve with a large enough effect; inconclusive = small, poorly fitted or top-dose-only effect, or another doubt; inactive = no such curve, though single readings can be large or run the other way;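 also: the enzyme is Sfp with the accession as filed and its product quenches rhodamine fluorescence; potency is read from the fitted curve at half-maximal effect; 0% = enzyme reaction without inhibitor and -100% = no enzyme wells; top concentration of the series not given in the record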
#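 With Hepes-Na pH 7.6 buffer containing 10 mM MgCl2, Sfp (15 nM) modified BHQ-2-YbbR (12.5 uM) using rhodamine-CoA (5 uM). Two reads 30 minutes apart at 525/598 nm yielded each well's rate.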
# PINK1 expr mod: changes PINK1 expression; PINK1 immunofluorescence, high-content cytometry, 24 h; Potency, µM (series often up to 76.6 µM), without a hit: at the highest dose activation (PINK1 increase), actives largely listed as activators; AID 624263; actives 0.2% (n = 410,000); active = well fitted activation curve with a large enough effect; inconclusive = small, poorly fitted or top-dose-only effect; inactive = flat fitted curve, though single readings scatter; cell line not stated here;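 also: potency is read from the fitted curve at half-maximal effect; % of control where 0% means no effect; nearly all actives have a fitted effect of over 65% in size; a mitochondrial uncoupler was the plate control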
#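 Fluorescence from anti-PINK1 antibody, together with nuclear and cell stains, was scanned on a laser-scanning cytometer. Before staining, stable-line cells were incubated 24 hours with compounds at 5 concentrations; primary antibody 12 h at 10 degrees C.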
# D2 potentiator: potentiates the human D2 dopamine receptor allosterically. P14416. DiscoveRx D2 beta-arrestin cells, luminescence, 90 min; 100% = 57 uM dopamine signal. potentiation, % (test concentration not listed). actives 0.23% (n = 360,000); active = potentiation of 50% or more; inconclusive = 30% to 50%; inactive = 30% or less;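 also: compound concentration not given in the record; tested on top of an EC20 dose of dopamine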
#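 PathHunter D2 cells, attached overnight at 37 deg C, received compound in DMSO plus dopamine at EC20 (50 nM final) for 90 min at 37 deg C. Beta-arrestin recruitment was read as luminescence after 1 h with detection reagent at ambient temperature.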
# Six1-Eya2 inh: blocks human Six1 binding to Eya2. activity change, % (no concentration beside the values). Q15475+O00167. actives 0.56% (n = 360,000). AlphaScreen GST-Six1/His-Eya2 binding, biochemical; hits give low values; control for the full effect not named in the record. AID 651725; in the data active = activity change below about -65%; inconclusive = about -30% to -65%; inactive = above about -30%; also: % is scaled to controls: 0 for no effect and ±100 for the full control effect; compound concentration not given in the record
# Target sequence (O00167 whole entry, looked up): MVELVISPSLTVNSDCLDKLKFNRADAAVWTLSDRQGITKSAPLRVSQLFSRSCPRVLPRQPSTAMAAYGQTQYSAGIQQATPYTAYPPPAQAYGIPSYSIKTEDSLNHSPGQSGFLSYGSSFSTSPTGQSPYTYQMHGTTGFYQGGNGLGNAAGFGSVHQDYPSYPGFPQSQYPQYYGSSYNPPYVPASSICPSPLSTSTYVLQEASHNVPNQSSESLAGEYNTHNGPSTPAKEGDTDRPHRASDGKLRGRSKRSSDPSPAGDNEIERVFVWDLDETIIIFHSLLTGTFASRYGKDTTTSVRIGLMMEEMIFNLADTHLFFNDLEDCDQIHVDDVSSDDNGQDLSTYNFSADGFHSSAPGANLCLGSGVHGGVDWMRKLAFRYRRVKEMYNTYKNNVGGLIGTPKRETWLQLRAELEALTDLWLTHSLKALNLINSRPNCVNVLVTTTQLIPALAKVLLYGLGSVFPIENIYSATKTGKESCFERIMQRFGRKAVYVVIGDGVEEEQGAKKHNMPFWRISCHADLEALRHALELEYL
# Target sequence (Q15475 whole entry, looked up): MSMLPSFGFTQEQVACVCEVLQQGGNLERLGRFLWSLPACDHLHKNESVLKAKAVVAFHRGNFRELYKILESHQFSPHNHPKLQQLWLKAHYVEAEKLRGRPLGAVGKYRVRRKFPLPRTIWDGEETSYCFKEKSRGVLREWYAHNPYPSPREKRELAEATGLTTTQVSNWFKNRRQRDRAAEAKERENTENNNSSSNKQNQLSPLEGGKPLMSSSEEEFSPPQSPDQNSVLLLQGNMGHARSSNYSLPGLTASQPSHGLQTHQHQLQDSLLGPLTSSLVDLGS
#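 AlphaScreen with GST-Six1 and His-Eya2 (5X mix: 250 nM and 500 nM), glutathione donor and nickel acceptor beads; buffer 50 mM Tris pH 8.0, 300 mM NaCl, 1 mM TCEP; 1 h at 37 C in the dark.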
# D2 agonist: human D2 receptor agonism in beta-arrestin assay | DiscoveRx PathHunter D2 beta-arrestin, luminescence, 90 min; 100% = 57 uM dopamine signal | activation, % (no concentration beside the values) | AID 624465 | actives 0.084% (n = 360,000); in the data active = activation above about 40%; inconclusive = about 15% to 40%; inactive = below about 15%; also: compound concentration not given in the record; the text of the record calls up to 30% inactive
#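 DiscoveRx PathHunter D2 beta-arrestin cells (2,100/well) attached overnight, then compound-stimulated 90 min at 37 C in HBSS/10 mM HEPES/0.1% Tween-20 buffer; beta-galactosidase complementation read by luminescence after 1 h at ambient temperature. Dopamine 57 uM final (EC100) as control.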
# TRPV1 PAM: enhances activation of the human vanilloid receptor TRPV1 | TRPV1-expressing cells, Fluo-8 calcium influx, capsaicin EC20 potentiation; host cell line not named in the record; control for the full effect not named in the record | potentiation, % at 8.33 µM | actives 0.02% (n = 320,000) | AID 540277; active means potentiation above 80%; inconclusive means 30% to 80%; inactive means below 30%; also: 0% is about no effect
#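 TRPV1-expressing cells were cultured overnight at 35.5C and loaded with Fluo-8 calcium dye for 40 to 90 min at room temperature. After a 10 s baseline, compound was added and calcium influx was read kinetically for 3 min (ex 480/em 520 nm).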
# An asterisk follows results filed as active; ? = inconclusive; / = not tested or not shown; & = joins results of further samples; [ ] = another dose, or the depositor's remark. Compounds as they come; any-hit rate near 3.7%.
# Each structure is followed by: CtBP-E1A blk	Sfp inh	PINK1 expr mod	D2 potentiator	Six1-Eya2 inh	D2 agonist	TRPV1 PAM
> O=C(NCc1ccco1)C1CCCN(S(=O)(=O)c2cccc3nsnc23)C1 (stereo not given)
→ 2	5%	-0.3%	-28	0	0.4	-3
> NNC(=O)c1cc(Br)cs1
→ -4	2%	8.1%	20	-1	0.6	-1
> CCCCCCCCn1ccc(=N)cc1
→ -11	-1%	1.6%	-4	-3	3.4	-45
> CC(=O)Oc1ccccc1/C=C/c1nc2ccccc2c(=O)o1
→ -21	-2%	-0.9%	2	-25	-3.4	23
> COC(=O)Nc1nnc(CC(=O)Nc2ccccc2C)s1
→ 2	9%	-1.3%	0	-2	-6.7	13
> O=C1c2ccccc2S(=O)(=O)c2cc(C(=O)N3CCN(C(=O)c4ccccc4)CC3)ccc21
→ -19	/	1.1%	-9	7	0.0	/
> Cn1c(-c2csc(-c3ccccc3)n2)n[nH]c1=S
→ -9	-10%	0.2%	-12	1	0.6	-2
> CC(C)C[C@H]1CN([C@@H](Cc2ccccc2)CN2CCC[C@H]2CN2C(=O)C(=O)NC[C@@H]2Cc2ccc(O)cc2)C(=O)C(=O)N1CC1CCCCCC1
→ -12	/	-0.3%	/	-5	/	/
> COc1ccccc1NC(=O)c1ccc(S(=O)(=O)N2CCC(C)CC2)cc1
→ 21	-18%	2.2%	5	3	2.6	2
> COc1ccc(C(=O)COC(=O)Cn2nnc3ccccc32)cc1Br
→ -6	-1%	3.9%[38.3 µM]	-6	-11	-4.9	-22
> COC(=O)c1c(-c2ccc(C(C)(C)C)cc2)csc1NC(=O)C1C2CCC(O2)C1C(=O)O (stereo not given)
→ -17	11µM*	5.6%	-3	-5	0.1	?
> Cc1nnc(N2CCOCC2)c2nn(-c3cccc(Cl)c3)c(C)c12
→ 24	-5%	0.5%	19	8	-1.4	5
> CCOC(=O)N1CCN(c2c(F)cc3[nH]c(=S)[nH]c3c2Br)CC1
→ -7	?	14%[38.3 µM]	-13	-1	3.8	-3
> COc1cccc(C2c3[nH]c4ccccc4c3C[C@H]3C(=O)N(c4ccccc4C(=O)N4CCC(C(=O)O)CC4)C(=O)N23)c1 (stereo not given in full)
→ 0	2%	0.6%	-2	-16	-3.5	0
> CCCCN1CC(COCc2ccccc2)Oc2cccc(F)c2S1(=O)=O (stereo not given)
→ 20	/	0.0%	-10	17	-6.9	/
> CC1Oc2ccccc2N(CC(=O)NC2CC2)C1=O (stereo not given)
→ -9	9%	1.0%	-4	1	3.1	8
> O=C(Oc1cc2oc(=O)cc(-c3ccccc3)c2cc1Cl)C1CCCCC1
→ 11	-10%	1.1%	-16	7	1.6	-13
> O=C(O)c1cccc(N/N=C/c2cccc3ccccc23)c1
→ -1	4%	0.5%	5	-8	-1.0	-7
> Cc1ccc(NC(=O)CSc2nnc(C)c(=O)n2N)cc1Cl
→ -16	9%	-0.5%	-13	-4	-5.7	-5
> O=C(O)Cc1ccc(C(=O)c2cccs2)s1
→ -4	8%	-1.3%	-5	-3	-3.7	?

# An excerpt from above, showing only Sfp inh:
molecule | Sfp inh
O=C(Oc1cc2oc(=O)cc(-c3ccccc3)c2cc1Cl)C1CCCCC1 | -10%
Cn1c(-c2csc(-c3ccccc3)n2)n[nH]c1=S | -10%

# Continued.
# Each structure is followed by: CtBP-E1A blk	Sfp inh	PINK1 expr mod	D2 potentiator	Six1-Eya2 inh	D2 agonist	TRPV1 PAM
> Cc1cc(Cl)ccc1OCCCC(=O)Nc1ccc(S(=O)(=O)Nc2ncccn2)cc1
→ -8	18%	-0.4%	-1	-11	-4.3	23
> CSc1ccc(CN(C)C(=O)C(c2ccccc2)c2ccccc2)cc1
→ -3	-1%	6.4%	-3	1	-6.5	13
> O=C(OCC(=O)C12CC3CC(CC(C3)C1)C2)c1cccnc1Cl
→ 2	-2%	?	2	11	-0.6	-5
> O=C1CC(NNc2ccccc2)C(=O)N1c1ccc(N2CCCCC2)cc1 (stereo not given)
→ -7	15%	7.7%	-12	-14	-14	?
> COc1ccc(C2/C(=C(\O)c3ccc4c(c3)OCCO4)C(=O)C(=O)N2CCCn2ccnc2)cc1 (stereo not given)
→ 2	-1%	1.6%	-11	1	-1.7	2
> c1ccc2[nH]c(-c3ccncc3)nc2c1
→ 0	15%&4%	-0.5%	13	1	0.3	5&-4
> CSc1nc2ccc(Br)cc2[nH]1
→ -8	20%	7.6%	5	-1	-6.3	6
> CCCCN1C(=O)C(O)(CC(=O)c2c(C)coc2C)c2ccccc21 (stereo not given)
→ /	15%	2.1%	-11	-1	-0.9	1
> Cc1ccc(-n2nc3c(=O)n(CC(=O)NCc4ccc(C)o4)nc(C)c3c2C)cc1
→ 6	1%	0.6%	-22	-2	-0.8	-1
> CCn1cc(C(=O)NCC2CCCO2)c(=O)c2cc(S(=O)(=O)N3CCCCC3)ccc21 (stereo not given)
→ 4	4%	-0.4%	0	5	-3.1	-15
> O=C(O)c1cccc(-c2ccc3c(c2)OCO3)c1
→ 4	11%	-0.2%	-1	3	-4.6	-6
> Cc1ccc(CC(=O)Nc2nc3c(s2)CCCC3)cc1
→ -5	12%	-0.1%	-17	-3	0.8	4
> COc1ccccc1NC(=O)CCSc1nnc(-c2ccc(O)cc2)o1
→ -5	23%	1.8%	-1	0	-1.0	1
> Cc1ccc(C(=O)Nc2ccc(OCc3ccccc3)cc2)s1
→ -15	6%	6.8%	-1	-9	8.4	-12
> COc1ccc(S(=O)(=O)N2CCCCC2)cc1NC(=O)c1ccc(CS(C)(=O)=O)cc1
→ -20	/	0.3%	-15	3	-3.6	6
> CCCCSc1nnc(-c2ccc(NC(=O)CC)cc2)n1C
→ 0	?	1.1%&-0.2%	-23	0	-0.1	-9
> CCCS(=O)(=O)NC(=O)C1(C)CCCN(C(=O)c2cc(-c3ccccc3)cs2)C1 (stereo not given)
→ -1	/	-0.5%	-12	7	-4.5	/
> CCOc1cc(C(=S)N2CCCC2)ccc1OC(=O)Cc1ccc(F)cc1
→ /	-5%	0.0%	-7	-1	1.9	9
> CCOC(=O)/C(=N\Nc1ccccc1)S(=O)(=O)c1ccccc1
→ -2	-17%	-2.9%[38.3 µM]	4	-4	-3.7	11
> CCC(C)(C)NC(=O)C(c1ccccc1)N(C(=O)c1csnn1)C1CC1 (stereo not given)
→ 2	2%	0.0%	-1	11	-4.4	11
> Cc1cnc(NC(=O)CC(C)c2ccccc2)s1 (stereo not given)
→ 0	7%	8.6%	-1	2	-2.6	-9
> COc1ccc([C@@H]2[C@@H]3C(=O)N(C(C)(C)C)C(=O)[C@@H]3[C@]3(C)C(=O)N(c4ccc(C(F)(F)F)cc4)C(=O)N23)cc1
→ 2	13%	0.7%	-9	-4	-1.0	18
> CCC(=O)Nc1ccc(NC(=S)NC(=O)/C=C/c2ccco2)cc1
→ 2	-2%	2.4%	-7	-9	-2.0	3
> Nc1c(C(=O)Nc2nccs2)sc2nc(-c3cccs3)cc(C(F)(F)F)c12
→ 403	-24%	?	2	226	-6.9	-5
> Cc1ccc(NC(NC(=O)c2cccs2)C(Cl)(Cl)Cl)cc1 (stereo not given)
→ -1	12%	7.2%	18	-3	4.1	-3
> COc1ccc(-c2nc(CS(=O)(=O)CC(=O)NCc3ccccc3OC)c(C)o2)cc1
→ -10	-4%	3.3%	-9	-1	-2.9	-13
> CN(Cc1ccccc1)C(=O)c1cccc(NC(=O)Cc2ccc(NC(=O)C3CCN(S(=O)(=O)c4cccc([N+](=O)[O-])c4)CC3)cc2)c1
→ -5	/	2.0%	7	-1	2.5	/
> O=C(CNC(=O)c1ccccc1)NCc1nc2ccccc2[nH]1
→ 0	/	-2.0%	-14	1	0.1	4
> CCN(CC)CCCNC(=O)Cn1cnc2sc(C)c(S(=O)(=O)N3CCN(c4ncccn4)CC3)c2c1=O
→ 0	10%	-1.2%	-7	5	-2.6	19
> COc1ccc(OC)c(-c2cc(C(=O)N/N=C/c3ccc(F)cc3)c3ccccc3n2)c1
→ -7	/	-0.5%	-15	-17	-2.3	/
> Cn1cnnc1SCC(=O)Nc1ccc(Oc2ccccc2)cc1
→ -3	4%	1.6%	-14	0	-1.9	-10
> CN(C)c1ccc(/C=C2\CCC/C(=C\c3ccccc3)C2=O)cc1
→ -10	?	11%	-3	-12	-1.2	5
> O=C(Nc1c(F)cccc1F)c1ccc(-n2cncn2)nc1
→ -3	10%	-0.1%	-8	-1	-2.0	0
> COc1ccccc1CCC(=O)Nc1ccc(OC)c(S(=O)(=O)N2CCCCC2)c1
→ -9	/	0.9%	-1	-2	-2.9	1
> C=C(c1ccccc1)c1ccccc1N
→ 0	/	2.3%	-9	-2	-0.1	?
> COc1ccc2nc(NC(=O)c3ccccc3F)sc2c1
→ /	5%	2.7%	-6	14	0.5	-13
> CCCCn1c(N)c(N(CCOC)C(=O)CCNC(=O)c2ccc(Br)cc2)c(=O)[nH]c1=O
→ 7	/	4.7%	-12	-3	-1.7	12
> O=C(NC(=S)Nc1cc(S(=O)(=O)N2CCOCC2)ccc1O)c1ccco1
→ 0	45µM*	4.4%	-7	-6	1.5	-1
> Cc1nc(C)c(-c2csc(Nc3ccc(O)c(C(=O)O)c3)n2)s1
→ -28	-27%	0.4%	-2	-71*	-2.5	5
> CCCC(C)NC(=O)COC(=O)c1ccc2c(c1)C(=O)N(Cc1ccco1)C2=O (stereo not given)
→ 4	9%	-0.1%	1	4	-1.5	1
> CC(=O)Nc1nonc1-c1nc2ccccc2n1C
→ -1	4%	2.1%	-8	-4	-0.6	-5
> O=C1CNC(=O)/C(=C\c2ccccc2)N1
→ /	13%	1.9%	-6	11	-4.7	19
> COc1ccc(C(=O)NNC(=O)Cc2ccc(-c3ccccc3)cc2)cc1OC
→ 2	9%	0.7%	-20	2	-3.2	2
> CCOc1ccc(OCC)c(NC(=O)c2nnn(CC(=O)Nc3cc(C)cc(C)c3)c2N)c1
→ -7	-14%	-1.9%	-4	-6	2.2	-1
> CCN1CCN(C(=O)c2ccc(OC3CCN(CCc4ccccc4)CC3)cc2)[C@@H](C)C1=O
→ 8	14%	0.6%	-29	0	-0.9	-14
> CCN(c1ccccc1)S(=O)(=O)c1cccc(C(=O)OCC(=O)Nc2ccc(NC(C)=O)cc2)c1
→ 15	/	0.8%	-3	3	0.7	/
